CBX7 inh – inhibitors of human CBX7 binding to H3K27me3 peptide; AlphaScreen His6-CBX7 / biotin-H3K27me3 peptide binding; hits give low values; normalised signal (fraction of DMSO) (no concentration beside the values); O95931; 66,000 tested, 1.1% active; in the data active = normalised signal below about 0.5;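 also: 100 nL library stock added to about 20 µL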
Target sequence (O95931 whole entry, looked up): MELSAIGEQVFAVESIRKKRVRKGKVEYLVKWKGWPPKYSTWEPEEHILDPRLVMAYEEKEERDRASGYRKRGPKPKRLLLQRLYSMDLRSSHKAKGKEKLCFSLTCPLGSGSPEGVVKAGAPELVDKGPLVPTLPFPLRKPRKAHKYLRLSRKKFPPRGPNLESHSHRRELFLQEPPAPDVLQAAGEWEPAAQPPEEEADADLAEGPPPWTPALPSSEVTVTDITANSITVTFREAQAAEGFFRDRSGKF
CBX7 inh z-score – also measured in CBX7 inh; calls as there; z-score; measured here: z-score of CBX7 signal; some inactives read as strong as hits; reference of the scale not given here;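 same signal on another scale; lower means less binding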
* = called active by the depositor; & = joins results of further samples. This is a subset. The share of hits here may be higher or lower than overall.

A first look:
SMILES	CBX7 inh	CBX7 inh z-score
CC(C)CCOc1ccc(CO[C@@H]2[C@H]3OC(C)(C)O[C@H]3O[C@@H]2C(O)CO)cc1 (some centres not stated)	1	0.11
O=S(=O)(c1ccc(-c2csc(Nc3ccc4c(c3)OCO4)n2)cc1)N1CCCCC1	0.84&0.7	-1.9&-3.4
Cc1cc2nc(C)c(Cc3ccccc3)c(=O)n2[nH]1	0.99	-0.24
O=C(Nc1cccnc1)C1CCCN(S(=O)(=O)c2cccnc2)C1 (configuration not stated)	1	0.47
O=C(CCCn1c(=O)[nH]c2ccccc2c1=O)N1CCN(c2ccc(F)cc2)CC1	0.95	-0.13
COc1ccc(OC)c(C2=NOC(C(=O)NCc3ccccc3)C2)c1 (configuration not stated)	1	1.3
Brc1ccc(-n2cc(-c3ccccc3)c3c(NCc4cccs4)ncnc32)cc1	1.1	3.1

This part in full, from the first entry:
SMILES	CBX7 inh	CBX7 inh z-score
CC(C)CCOc1ccc(CO[C@@H]2[C@H]3OC(C)(C)O[C@H]3O[C@@H]2C(O)CO)cc1 (some centres not stated)	1	0.11
O=S(=O)(c1ccc(-c2csc(Nc3ccc4c(c3)OCO4)n2)cc1)N1CCCCC1	0.84&0.7	-1.9&-3.4
Cc1cc2nc(C)c(Cc3ccccc3)c(=O)n2[nH]1	0.99	-0.24
O=C(Nc1cccnc1)C1CCCN(S(=O)(=O)c2cccnc2)C1 (configuration not stated)	1	0.47
O=C(CCCn1c(=O)[nH]c2ccccc2c1=O)N1CCN(c2ccc(F)cc2)CC1	0.95	-0.13
COc1ccc(OC)c(C2=NOC(C(=O)NCc3ccccc3)C2)c1 (configuration not stated)	1	1.3
Brc1ccc(-n2cc(-c3ccccc3)c3c(NCc4cccs4)ncnc32)cc1	1.1	3.1
CCOC(=O)Cc1nnc(Nc2ccc(OC)cc2)c2ccccc12	1	0.64
Cc1ccc2nc(SCC(=O)Nc3ccccc3C#N)[nH]c2c1	1	1.1
Cc1nc2ccc(C(=O)NCCC(C)C)cc2nc1C	1	0.16
CC(C)NC(=O)C1CCCN(c2nc3ccccc3o2)C1 (configuration not stated)	1.3	8.7
O=C1CN(C(=O)c2cccc(C(F)(F)F)c2)C(c2ccc(F)cc2)c2cc(F)ccc2N1 (configuration not stated)	0.85	-2.7
CCCCN(C)CCNC(=O)CCn1nc(-c2ccc(C)cc2)ccc1=O	1	-0.12
CCOc1ccc(-c2nc(Nc3ccc(F)cc3)sc2CC(=O)O)cc1	1.7	2.4
O=C(Nc1cccc(C(F)(F)F)c1)C1(S(=O)(=O)c2ccc(Cl)cc2)CC1	1.1	2.1
COc1ccc(N(C)C(=O)c2cnc(N3CCN(c4ccccc4OC)CC3)c3ccccc23)cc1	0.93	-1.3
O=C1CC(c2ccc(N3CCOCC3)cc2)c2cc3c(cc2N1)OCO3 (configuration not stated)	0.95	-1.6
COc1ccc(C2NC(C(=O)O)Cc3c2[nH]c2ccccc32)c(OC)c1 (configuration not stated)	0.99	-0.42
Cc1ccc(-c2nc(C(=O)Nc3ccc(Br)c(C)c3)c(C)o2)cc1	0.86	-1.5
Cc1nn(C)c(C)c1S(=O)(=O)N(CC(=O)N1CCOCC1)c1ccc(C(C)C)cc1	1.3	1.8
COc1cccc(NC(=O)CSc2nc(-c3ccc4c(c3)OCO4)cn2-c2ccc(F)cc2)c1	0.97	-0.33
Cc1c(C(=O)NCc2ccc3c(c2)OCO3)oc2ccc(S(=O)(=O)N3CCC4(CC3)OCCO4)cc12	0.93	-0.08
CC(C)Cc1cc(C(=O)N2CCN(c3ccccc3)CC2)no1	1.1	0.089
O=C(Nc1cccc(C(F)(F)F)c1)N1CCN(C/C=C/c2ccccc2)CC1	1.2	1.8
O=C(NC1CCCC1)C(c1ccccc1)N1CCC(Cc2ccccc2)CC1 (configuration not stated)	1	-0.14
COc1cccc(-c2nc(CS(=O)(=O)CC(=O)Nc3ccc(C)cc3C)c(C)o2)c1	0.99	-0.14
CCC(C)(C)NC(=O)C1CCC(CNS(=O)(=O)c2cccc3cccnc23)CC1 (configuration not stated)	0.98	-0.83
Cc1nccc2[nH]c(=O)c(C(=O)NCC3CCCO3)cc12 (configuration not stated)	1.2	1.1
Cc1cccc(C)c1NC(=O)CS(=O)(=O)c1nc(-c2ccc(Cl)cc2)cn1-c1ccccc1	0.88	-2.8
CCC(C)(C)C1CCC2Oc3ccc(NS(=O)(=O)c4cccc([N+](=O)[O-])c4)cc3C2C1 (configuration not stated)	0.61	-1.1
Cc1cc(C)n(-c2c(F)c(F)c(CO)c(F)c2F)n1	0.9	-1.7
O=C(NCc1ccccc1)c1ccc2c(c1)NC(=O)c1ccccc1N2	1	0.24
Cc1cc(Cl)ccc1OCC(=O)Nc1sc2c(c1C(=O)OC(C)C)CCCC2	1.1	0.14
CCOc1ccc(-c2cc(CCCC(=O)NCCc3ccc(Cl)cc3)no2)cc1	0.98	-0.4
COc1ccccc1Nc1ncc(C(=O)N(C)c2ccc(Cl)cc2)c2ccccc12	1.3	2.4
Cc1ccc2c(c1)c1c(n2CC(O)Cn2c(C)nc3ccccc32)C(=O)CCC1 (configuration not stated)	1.2	4.2
Cc1ccc(-c2cc(-c3ccc(F)cc3)nc3ncnn23)cc1	0.83	-2
Brc1ccc(-c2nnc3ccc(OCc4ccccc4)nn23)cc1	0.96	-1.4
COC(=O)Cc1nc(Nc2ccc(C)cc2)c2c3c(sc2n1)CCCC3	0.89	-2.2
COc1ccc(CCNC(=O)CCN2N=C(c3ccccc3)CCC2=O)cc1OC	1	0.4
CN(C)C(=O)N1CCC(C(=O)NCc2ccc3c(c2)OCO3)CC1	1	1.7
CC(C)=C1C2C=CC1C1C(=O)N(c3cccc(C)c3C)C(=O)C21 (configuration not stated)	0.92	-1.3
Cc1ccccc1NC(=O)c1ccc(F)c(S(=O)(=O)N2CCCCC2)c1	1	0.088
Cc1ccc(NCC(O)Cn2c(C)c(C)c3ccccc32)c(C)c1 (configuration not stated)	0.79	-5.8
Cc1ccc(NC(=O)CCc2c(C)nc3c(-c4ccccc4)c(C)nn3c2C)nc1	1.1	2.2
O=C(Nc1cccc(Cl)c1)c1cc2nc(-c3ccc(F)cc3)cc(C(F)(F)F)n2n1	1.1	2
Cc1ccc(CCNC(=O)c2cc(=O)[nH]c3ccc(S(=O)(=O)N4CCCCC4C)cc23)cc1 (configuration not stated)	0.91	-2.7
Cc1ccc(NC(=O)C2CCN(C(=O)c3cnn(-c4ccccc4)c3-n3cccc3)CC2)cc1Cl	0.91	-0.2
CCN(CC)CCNC(=O)CCCNC(=O)Cn1cnc2sc(C)c(C)c2c1=O	1.1	2.8
CCC(C)NC(=O)CS(=O)(=O)Cc1nc(-c2cccc(OC)c2)oc1C (configuration not stated)	1	0.28
CC(C(=O)NCc1ccccn1)N1C(=O)CC(C)(C)Sc2ccccc21 (configuration not stated)	1	0.92
CCCCC(=O)Nc1nnc(COc2ccc(C(C)(C)C)cc2)s1	1	0.54
Cc1ccccc1Cn1c(CN2CCOCC2)nc2c1c(=O)[nH]c(=O)n2C	1	0.52
Cc1cccc(CCNC(=O)C2CCN(S(=O)(=O)c3cnc[nH]3)CC2)c1	0.88	-1.5
CCOC(=O)C1CCCN(c2c(N3CC(C)CC(C)C3)c(=O)c2=O)C1 (configuration not stated)	0.9	-2.3
CC(NS(=O)(=O)c1ccccc1)C(c1cccs1)N1CCOCC1 (configuration not stated)	0.99	-0.3
CC(C)(O)C#Cc1ccc(C(=O)N2CCN(c3ccc(Cl)c(Cl)c3)CC2)cc1	0.85	-2
CC(=O)Nc1cccc(N2C(=O)CC(Cc3ccc(C)cc3)C2=O)c1 (configuration not stated)	1.1	1.3
Cc1nnc2c(Nc3ccc(I)cc3)nc3nonc3n12	1.1	1.8
COc1ccc(-c2nc(-c3ccc(OC)cc3)c(CC(=O)O)s2)cc1	1.1	0.54

Next part.
SMILES	CBX7 inh	CBX7 inh z-score
COc1ccc(-c2cc(-c3ccccc3)nc(-c3cc(Cl)ccc3O)c2)cc1	1	0.72
COC(=O)c1cccc(NC(=O)CSc2nc3ccccc3[nH]2)c1	0.88	-0.16
CCN1CCCC1CNC(=O)CCc1nc(-c2ccc(OC)cc2)no1 (configuration not stated)	0.93	-0.066
Cc1nc2nc(SCC(=O)NCc3ccccc3)nn2c(C)c1Cc1ccc(Cl)cc1	1.1	1.1
Cn1nc(-c2ccccc2F)c2cc(C(=O)Nc3ccccc3C#N)sc21	1.1	0.42
CC1CCN(c2nc(-c3ccccc3)cc(C(F)(F)F)n2)CC1	1.7	7.4
COc1ccc(-c2nc(SCC(=O)Nc3ccc(F)cc3)c(-c3ccccc3)[nH]2)cc1OC	0.85	-7
O=c1[nH]c2ccc(Cl)cc2c(-c2ccccc2)c1N1CCCC1	1.1	1.4
COc1ccc(C2(C(=O)N3CCCCC3)CCCC2)cc1OC	0.87	-2
O=C(Cc1ccccc1)Nc1c2c(nn1-c1cccc(Cl)c1)CSC2	0.98	-0.92
CCCCCCc1cc2cc(C(C)=O)c(=O)oc2cc1O	1.1	1.6
Cc1ccc(NC(=O)c2c(-c3ccccc3Cl)noc2C)nc1	1	0.073
CCOc1ccc(-c2nc(CSCC(=O)O)c(C)o2)cc1	1.1	1.3
CCOC(=O)c1[nH]cnc1C(=O)Nc1ccc(OC)cc1	0.066*	-11*
O=C1CCc2cc(S(=O)(=O)N3CCC(C(=O)Nc4ccc(F)c(F)c4)CC3)ccc2N1	0.98	-0.26
Cc1cccc(CSc2nc3ccncc3n2CC(=O)Nc2cc(C)cc(C)c2)c1	0.82	-2.6
CCN(CCCNC(=O)C1CCN(C(=O)c2cc3sccc3n2C)CC1)Cc1ccccc1	0.98	-0.36
O=C(Nc1ccccc1C(=O)Nc1ccccc1Cl)c1ccccc1	1.1	0.85
COc1ccccc1NC(=O)Cn1cnc2sc(C(=O)NC3CCCCCC3)c(C)c2c1=O	1.2	2
CCOc1ccc(-n2ccnc2SCC(=O)Nc2cccc(C)c2C)cc1	1.1	0.73
CCCNC(=O)c1ccc2c(c1)ncn2-c1ccc(F)cc1F	0.87	-1.6
CCC(C(=O)Nc1c2c(nn1-c1ccc(Cl)cc1)CS(=O)(=O)C2)c1ccccc1 (configuration not stated)	1	0.0063
O=C1CN(C(=O)Cc2ccc(F)cc2)C(c2ccccc2)c2cc(F)ccc2N1 (configuration not stated)	0.97	-0.7
CCCCN(CC)S(=O)(=O)c1ccc(C(=O)Nc2ccccc2-c2nc3ccccc3o2)cc1	1	0.33
CN1CCN(c2ncnc3scc(-c4ccc(-c5ccccc5)cc4)c23)CC1	0.72	-0.58
Cc1ccc2c(c1)N(CC(=O)NC1CCCc3ccccc31)C(=O)CO2 (configuration not stated)	1.2	3
O=C(c1ccc(Cl)cc1)c1conc1C(=O)c1ccc(Br)cc1	1.1	0.76
COc1ccc(Br)cc1CN1C(=O)CCC1(C)C(=O)NC1CCCCC1 (configuration not stated)	1.1	2.4
COc1ccc(NC(=O)CC(Cc2ccc(Cl)cc2)C(=O)O)cc1 (configuration not stated)	1.2	1.3
COc1cccc(-c2nc(CS(=O)(=O)CC(=O)N3CC(C)CC(C)C3)c(C)o2)c1 (configuration not stated)	1.4	3.5
O=c1cc(N2CCN(c3ccccc3)CC2)[nH]c(=O)n1-c1ccccc1Cl	0.93	-1.3
COCCNC(=O)C1CCN(Cc2nc(-c3ccccc3F)oc2C)CC1	0.99	-0.14
COc1ccc(C(=O)CC2(O)C(=O)Nc3ccc(Br)cc32)c(OC)c1 (configuration not stated)	0.95	-0.094
COc1ccc(NC(=O)Nc2nnc(-c3ccncc3)s2)cc1	1	0.082
COc1ccccc1Nc1cc(C(=O)NC2CCCC2)c2ccccc2n1	1	0.029
c1ccc2c(Oc3ccc4c(c3)OCO4)nncc2c1	0.91	-2.5
COc1ccc(NC(=O)Nc2cccc(C)n2)c(OC)c1	1.1	0.13
CCCN1Cc2cccc(C(=O)Nc3cc(Cl)ccc3OC)c2C1=O	1	-0.04
O=C(CSc1nnc(-c2ccc3c(c2)OCCO3)o1)N1CCOCC1	1	0.098
COc1ccc(OCC(=O)N(Cc2nc(-c3ccccc3)no2)C(C)C)cc1	0.94	-1.3

3 compounds out of the list, ordered by number of heavy atoms, ascending:
SMILES	CBX7 inh	CBX7 inh z-score
COc1ccc(Br)cc1CN1C(=O)CCC1(C)C(=O)NC1CCCCC1 (configuration not stated)	1.1	2.4
Brc1ccc(-n2cc(-c3ccccc3)c3c(NCc4cccs4)ncnc32)cc1	1.1	3.1
Cc1ccc(CCNC(=O)c2cc(=O)[nH]c3ccc(S(=O)(=O)N4CCCCC4C)cc23)cc1 (configuration not stated)	0.91	-2.7

Going on with the list:
SMILES	CBX7 inh	CBX7 inh z-score
Cc1ccc(C2CCN(C(=O)Nc3ccc(C)c(C)c3)C2)cc1 (configuration not stated)	0.91	-0.57
COc1ccccc1-c1cc2nc(C)c(CCC(=O)Nc3ccc(CN4CCCC4)cc3)c(C)n2n1	1	0.11
Cc1ccc2nc(-c3cccc(NC(=O)c4oc5ccccc5c4C)c3)oc2c1	1	0.23
CCCCN(C)CCCNC(=O)C1CCN(c2nc3ccc(OC)cc3s2)CC1	1.1	1.1
Cc1ccc(C)c(Cc2c(C)nc3c(C(=O)NC4CC4)cnn3c2C)c1	1	0.41
CCCCn1c(C(C)NC(=O)CC)nc2ccccc21 (configuration not stated)	1.2	1.8
COc1ccc(-c2nc(SCC(=O)NC3CCCC3)c(-c3ccc(C)cc3)[nH]2)cc1OC	0.99	-0.2

Among those listed so far, these have a furan ring, fused or not:
SMILES	CBX7 inh	CBX7 inh z-score
Cc1c(C(=O)NCc2ccc3c(c2)OCO3)oc2ccc(S(=O)(=O)N3CCC4(CC3)OCCO4)cc12	0.93	-0.08
Cc1ccc2nc(-c3cccc(NC(=O)c4oc5ccccc5c4C)c3)oc2c1	1	0.23

Sorted by the number under CBX7 inh z-score (highest first): five of the compounds above.
Molecule	CBX7 inh z-score
CC(C)NC(=O)C1CCCN(c2nc3ccccc3o2)C1 (configuration not stated)	8.7
Brc1ccc(-n2cc(-c3ccccc3)c3c(NCc4cccs4)ncnc32)cc1	3.1
CCCCN(CC)S(=O)(=O)c1ccc(C(=O)Nc2ccccc2-c2nc3ccccc3o2)cc1	0.33
CCC(C)NC(=O)CS(=O)(=O)Cc1nc(-c2cccc(OC)c2)oc1C (configuration not stated)	0.28
O=C(CCCn1c(=O)[nH]c2ccccc2c1=O)N1CCN(c2ccc(F)cc2)CC1	-0.13

High-throughput results as filed in PubChem BioAssay.
